High-throughput results as filed in PubChem BioAssay.
Mtb H37Rv: M. tuberculosis H37Rv growth inhibitors, H37Rv strain (AID 1626); M. tuberculosis H37Rv growth inhibition; higher % means a stronger effect; inhibition, % at 10 µM, or IC50 in µM where a hit was titrated; 220,000 compounds, 0.95% hits;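 active = confirmed in a dose series; inconclusive = inhibition above 80% but not taken into the dose series; inactive = below 80% or under 30% at every dose of the series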;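 also: bacteria incubated seven days before Alamar blue readout; 0% = bacteria only wells and 100% = bacteria with antibiotic wells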
YopH inh: YopH tyrosine phosphatase inhibitors, primary screen, biochemical, fluorescence Ex485/Em525; inhibition, %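 (about 10 µM by stock and volumes)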; 140,000 compounds, 0.16% hits; AID 898, 2007;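 active = inhibition of 50% or more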;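 also: controls were vehicle for no effect and minimum signal wells for full effect; inactives centre near -20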
RecA splice inh: Mtb RecA intein splicing inhibitors, primary screen, biochemical, fluorescence, HTS; 290,000 compounds, 0.75% hits; inhibition, %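 (about 9 µM by stock and volumes)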; Protein RecA (Mycobacterium tuberculosis (strain ATCC 25618 / H37Rv)), P9WHJ3; cell-free RecA intein splicing; in the data active = inhibition above about 30%; inconclusive = no clear call, values can overlap the other calls;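 also: 0% = vehicle wells and 100% = reference inhibitor control wells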
Target sequence (P9WHJ3 whole entry, looked up, canonical isoform): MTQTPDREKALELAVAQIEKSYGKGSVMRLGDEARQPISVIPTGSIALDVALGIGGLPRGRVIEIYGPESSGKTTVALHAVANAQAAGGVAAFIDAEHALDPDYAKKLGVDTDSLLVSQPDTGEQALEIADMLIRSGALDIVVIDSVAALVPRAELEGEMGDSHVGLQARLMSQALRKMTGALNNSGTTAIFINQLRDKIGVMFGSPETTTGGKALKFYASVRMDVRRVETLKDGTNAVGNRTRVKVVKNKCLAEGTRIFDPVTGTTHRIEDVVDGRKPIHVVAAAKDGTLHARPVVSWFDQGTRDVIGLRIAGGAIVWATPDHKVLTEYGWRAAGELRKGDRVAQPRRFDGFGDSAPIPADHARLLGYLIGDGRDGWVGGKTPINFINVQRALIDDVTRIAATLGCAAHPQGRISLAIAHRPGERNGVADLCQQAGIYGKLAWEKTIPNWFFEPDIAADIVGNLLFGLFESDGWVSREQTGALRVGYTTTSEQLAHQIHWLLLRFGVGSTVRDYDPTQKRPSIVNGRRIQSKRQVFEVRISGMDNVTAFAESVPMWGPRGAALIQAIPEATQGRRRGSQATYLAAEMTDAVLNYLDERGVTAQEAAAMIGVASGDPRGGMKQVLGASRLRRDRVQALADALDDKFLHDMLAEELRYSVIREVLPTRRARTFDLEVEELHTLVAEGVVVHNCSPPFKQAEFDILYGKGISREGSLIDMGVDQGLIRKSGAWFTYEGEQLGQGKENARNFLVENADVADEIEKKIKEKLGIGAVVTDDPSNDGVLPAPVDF
Arbovirus anti: antivirals against arbovirus infection, primary screen, cell-based, full library, 10K replicate subset | arbovirus infection cell-based antiviral screen | inhibition, % at 10 µM | 200,000 compounds, 0.37% hits | AID 1251, 2008;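 active = inhibition from about 30%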;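 also: bluetongue infection of BSR cells; cell survival read as ATP light after 72 h; 0% = infected wells without compound and 100% = uninfected wells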
Mtb bLac sens: beta-lactam sensitization of Mtb H37Rv, H37Rv. M. tuberculosis H37Rv growth with meropenem, percent inhibition; hits of this screen are not shown here. inhibition, % at 25 µM. 330,000 compounds, 0.27% hits;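 active = about 74% or more and at least 40 points above the plate without the antibiotic, then above 30% in a dose series; inconclusive = first-round hits that could not be retested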;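 also: growth measured after seven days incubation then overnight dye step; 0% = bacteria only wells and 100% = bacteria with antibiotic; twin plates without the antibiotic show which effects depend on it; some results filed as inactive read as strong as hits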
Arbovirus anti repeat: also measured in Arbovirus anti; calls as there; inhibition, %; measured here: 10K subset replicate screen; many hits read low in the repeat;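 first of two repeat runs on a subset; 0% = infected and 100% = uninfected wells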
The depositor's hits bear a star; ? = inconclusive; . = not tested or not shown. Some of the compounds tested; count on the stated rates, not on these rows.

SMILES | Mtb H37Rv | YopH inh | RecA splice inh | Arbovirus anti | Mtb bLac sens | others
Brc1c(C[n+]2ccccc2)nc2ccccn12 | 0% | . | 1.3 | . | -3
CCc1c(O)nc(SCC(=O)Nc2cc(C)on2)n(-c2ccccc2)c1=O | . | . | -4.6 | . | -1
Cc1ccc(S(=O)(=O)N(C)CCCC(=O)NC(C)(C)CO)cc1 | -5% | . | 1.2 | -1 | -3
O=c1c(Cc2ccc(Cl)cc2)c(O)ccn1Cc1cccc(Cl)c1 | 7% | -49 | -0.5 | 18 | 0
CC(C)C[C@H](NC(=O)c1nc[nH]c1C(=O)NCC(=O)OC(C)(C)C)C(=O)OC(C)(C)C | -6% | . | -6.0 | . | 10
COc1ccccc1NC(=O)NC1CC(=O)N(c2ccc3c(c2)OCCO3)C1 (centres undefined) | . | . | -1.2 | . | -6
CCOC(=O)N1CCN(C(=O)CSc2nnc(-c3cccc(Cl)c3)o2)CC1 | ? | -16 | -1.1 | 7 | 100 | Arbovirus anti repeat=-1
COc1cc(/C=N/N=C2/NC(=O)C(CC(=O)O)S2)ccc1OCc1cccc(Cl)c1 (centres undefined) | -5% | . | 3.5 | -5 | 72
CCc1ccccc1N=C1S/C(=C/c2ccccc2OCC(=O)N2CCOCC2)C(=O)N1C | 8% | -21 | 11 | -27 | 6
NC(=O)CC[C@@H]1NC(=O)[C@H](CO)NC(=O)c2cc([N+](=O)[O-])cc(I)c2NCCC[C@@H](C(N)=O)NC(=O)[C@H](Cc2ccc(O)cc2)NC1=O | -6% | -16 | . | 5 | -13
C/C=C/C(=O)N1c2ccc(C)cc2C(C)=CC1(C)C | -4% | . | 4.1 | . | -6
NC(=O)CSc1nnc(-c2cc(-c3cccs3)nc3ccccc23)o1 | 2% | 0 | . | 5 | 4
CCN(c1ccc(OC)cc1)S(=O)(=O)c1csc(C(=O)N2CCCC2)c1 | . | . | -2.8 | . | 4
COc1cc(C2N(c3cccc(Cl)c3)C(=O)C3CCCN32)cc(OC)c1OC (centres undefined) | 2% | -46 | 0.4 | -3 | 2
COc1ccc(-c2cc3ccccc3n2CC(O)CNC(CO)(CO)CO)cc1 (centres undefined) | 2% | 18 | 1.8 | 10 | 6
Cc1cccc(C)c1NC(=O)CCCCCNS(=O)(=O)c1ccccc1 | 7% | . | 0.0 | -1 | 1
C=CCn1c(SCC(=O)N(C)C)nc2cc(C(=O)O)ccc2c1=O | 1% | . | 0.8 | -2 | 0
CCC(=O)C1CCCN(C(=O)c2ccc3nc(-c4cccc(OC)c4)oc3c2)C1 (centres undefined) | . | . | -0.2 | . | -4
CCCNC(=O)c1ccc(COc2ccc(C(C)(C)C)cc2)o1 | . | . | 4.5 | . | -1
Cc1ccc(-n2c(SCC3CCCCO3)nnc2-c2ccco2)cc1 (centres undefined) | -5% | -19 | 3.2 | 8 | -13
CN(C(=O)c1cc2ccccc2oc1=O)C1(C)CCS(=O)(=O)C1 (centres undefined) | 8% | . | -7.9 | -2 | 4
O=C(COC(=O)c1cc(S(=O)(=O)N2CCOCC2)ccc1F)c1ccc[nH]1 | -2% | -17 | 0.2 | 8 | -6
O=[N+]([O-])c1cc(Cl)cc(/C=N/Nc2nc3ccccc3s2)c1O | 0% | . | -0.7 | -32 | 100
COc1ccc(OC)c(NC(=S)NN2CCOCC2)c1 | -4% | -28 | -0.7 | 1 | -6
COc1ccc(Nc2nc(N)nc(CSC(=S)N3CCN(C)CC3)n2)cc1 | -2% | . | 0.0 | -2 | 1
Cc1nc(N2CCCCC2)nc(N2CCCCC2)c1C=O | -4% | . | 1.6 | -1 | -2
O=S1(=O)CCC(N=Cc2ccc(-c3ccc(Cl)cc3)o2)C1 (centres undefined) | 6.5µM* | . | -0.2 | -5 | 12
CS(=O)(=O)N1CCC(C(=O)Nc2c(F)cccc2F)CC1 | -1% | -43 | -5.1 | 0 | 1
COCCn1c(N)c(N(Cc2ccccc2)C(=O)c2oc3ccccc3c2C)c(=O)[nH]c1=O | 1% | . | 6.6 | -3 | 8
CCOC(=O)NN=C1CCC(c2ccccc2)CC1 (centres undefined) | . | . | 2.3 | . | -4
Cc1ccc(-n2c(-c3ccc(Cl)cc3)c[n+]3c2CCC3)cc1 | -11% | . | 6.3 | . | -10
Cc1cc(Cl)c(S(=O)(=O)NC2CCCC2)cc1OCC(=O)NC1CCCCC1 | -5% | -8 | 1.7 | 17 | -20
Cc1c(Cl)c([N+](=O)[O-])nn1CCCC(=O)Nc1ccc(Cl)cc1Cl | 2% | -30 | 0.9 | -6 | -3
CSCCCNC(=O)c1ccc(OC2CCN(CCc3ccccc3)CC2)cc1 | 7% | . | -0.1 | -13 | -4
COc1ccc(C(=O)NCC(=O)Nc2ccc(F)cc2)cc1OC | -1% | -24 | -0.2 | 5 | -2
CC(=O)N(C)CC#CCN1CCC(O)CC1 | -12% | . | -2.1 | . | -20
CCc1ccc(C(=O)COC(=O)c2cnccn2)cc1 | -16% | -16 | -1.7 | 3 | 3
O=C(O)C1CCCCC1C(=O)Nc1ccc(F)cc1F (centres undefined) | -4% | -34 | 1.3 | 6 | 0
CCOC(=O)C1CCN(C(=O)COC(=O)c2ccc(=O)n(Cc3ccccc3)n2)CC1 | . | . | -3.5 | . | -8
Nc1cccn2c(-c3ccc(Cl)cc3)cnc12 | 1% | . | 12 | -13 | 7

Entries listed so far that have an NH in an aromatic ring, in the order listed:
SMILES | Mtb H37Rv | YopH inh | RecA splice inh | Arbovirus anti | Mtb bLac sens | others
CC(C)C[C@H](NC(=O)c1nc[nH]c1C(=O)NCC(=O)OC(C)(C)C)C(=O)OC(C)(C)C | -6% | . | -6.0 | . | 10
O=C(COC(=O)c1cc(S(=O)(=O)N2CCOCC2)ccc1F)c1ccc[nH]1 | -2% | -17 | 0.2 | 8 | -6
COCCn1c(N)c(N(Cc2ccccc2)C(=O)c2oc3ccccc3c2C)c(=O)[nH]c1=O | 1% | . | 6.6 | -3 | 8

(listing goes on)
SMILES | Mtb H37Rv | YopH inh | RecA splice inh | Arbovirus anti | Mtb bLac sens | others
Cc1ccc(NC2(c3nnnn3-c3c(C)cccc3C)CCCCC2)cc1 | 16% | 9 | 9.6 | 5 | -8
COc1ccc(OC)c(CNC(=O)C2CCCN(c3nc4ccccc4o3)C2)c1 (centres undefined) | -1% | -43 | 0.5 | 8 | -8
CCC(NC(=O)c1ccccc1O)c1ccccc1 (centres undefined) | 6% | -27 | 4.2 | -4 | -2
COc1ccc(OCCCCOc2ccccc2Cl)cc1 | -1% | -21 | 8.6 | 4 | 5
CCCCOc1ccc(OCCNC(=O)c2ccco2)cc1 | . | . | 0.4 | . | 8
CCC(=O)Nc1cccc(NC(=O)CSc2nnnn2C)c1 | 1% | -23 | . | 5 | ?
Cc1onc(-c2ccccc2)c1NC(=O)N(CCC#N)Cc1ccccc1 | -3% | . | 1.9 | . | -1
COc1ccc(/C=C2\SC(=O)N(CCc3nnc(N)s3)C2=O)cc1 | -8% | . | 2.6 | . | 0
Cn1c(=O)n(C)c2cc(NC(=O)CSc3nnc(-c4ccccc4O)n3-c3ccccc3)ccc21 | -5% | -31 | . | 5 | 12
CC(=O)Nc1ccccc1C(=O)OCc1ccccc1F | 5% | . | 1.3 | -9 | 1
O=S(=O)(Nc1cccc(S(=O)(=O)N2CCCCCC2)c1)c1ccccc1 | -3% | . | 2.4 | 15 | 3
O=C(Nc1ccccc1Cc1ccccc1)c1ccc2c(c1)SC1=NS(=O)(=O)CCN12 | 1% | -32 | -2.0 | 5 | -5
O=C(NCC1OCCc2ccccc21)c1cc(COc2ccc(F)cc2Cl)on1 (centres undefined) | 7% | . | 4.3 | 1 | 2
COc1ccc(N(CC(=O)Nc2ccc(C)c(F)c2)S(=O)(=O)c2c(C)noc2C)cc1 | . | . | -3.0 | . | 3
CCOc1cc(C=O)ccc1OS(=O)(=O)c1ccc(NC(C)=O)cc1 | 5% | -33 | 1.3 | -5 | 4
Cc1ccc(S(=O)(=O)N/N=C/c2c(C)nn(-c3ccccc3)c2C)cc1 | -6% | -17 | 4.0 | 3 | 1
Cc1ccc(Cl)cc1N1CCN(S(=O)(=O)c2c(C)[nH]c(=O)[nH]c2=O)CC1 | -3% | -3 | 5.4 | 0 | 11
COc1ccccc1NC(=O)NNC(=O)c1ccc2c(c1)NC(=O)C(C)(C)O2 | . | . | -3.8 | . | -6
N#CC(C#N)=Cc1cccn1-c1ccc(C(=O)O)cc1 | -3% | . | -0.1 | 8 | -3
CCN(CCO)c1ncnc2onc(-c3ccc(F)cc3)c12 | . | . | -0.9 | . | 8
O=C(CSc1nnc(CNC(=O)C23CC4CC(CC(C4)C2)C3)n1-c1ccc(F)cc1)Nc1ccccc1 | 6% | -26 | -0.7 | -5 | 7
C[C@]12CCC3C(CC[C@H]4CCCC[C@]34C)C1CC[C@@]2(O)CNCCO (some centres undefined) | . | . | -0.6 | . | -1
N#C/C(=C(\O)c1ccco1)c1ccccn1 | -3% | -53 | 3.3 | 6 | 3
CC1CCCCC1NC(=O)CSc1nc2ccccc2[nH]1 (centres undefined) | . | . | 5.4 | . | 7
O=C(CSc1ccccc1C(=O)O)NCC1CCCCC1 | -8% | . | 1.2 | 10 | 4
Cc1ccc(C(=O)/C=C2\NCC(C)NC2=O)cc1 (centres undefined) | 5% | 8 | -0.4 | 6 | -12
Brc1ccccc1Cn1c(-c2cscn2)nc2ccccc21 | 5% | -19 | . | 2 | 59
Cc1ccc(S(=O)(=O)CC(=O)c2cc(C)c(O)c(C)c2)cc1 | 3% | . | -0.6 | 4 | 2
O=S1CCCSC1c1cccnc1 (centres undefined) | -11% | 5 | 0.0 | -4 | ?
COc1ccc(NC(=O)c2cccc3c2C(=O)N(C2CCCCC2)C3)cc1 | . | . | -0.8 | . | -3

5 entries already listed, ordered by SMILES length, highest first:
SMILES | Mtb H37Rv | YopH inh | RecA splice inh | Arbovirus anti | Mtb bLac sens | others
COc1ccc(NC(=O)c2cccc3c2C(=O)N(C2CCCCC2)C3)cc1 | . | . | -0.8 | . | -3
Brc1ccccc1Cn1c(-c2cscn2)nc2ccccc21 | 5% | -19 | . | 2 | 59
CC1CCCCC1NC(=O)CSc1nc2ccccc2[nH]1 (centres undefined) | . | . | 5.4 | . | 7
O=C(CSc1ccccc1C(=O)O)NCC1CCCCC1 | -8% | . | 1.2 | 10 | 4
N#C/C(=C(\O)c1ccco1)c1ccccn1 | -3% | -53 | 3.3 | 6 | 3

For reference, part of the list above:
SMILES | Mtb H37Rv | YopH inh | RecA splice inh | Arbovirus anti | Mtb bLac sens | others
O=C(CSc1nnc(CNC(=O)C23CC4CC(CC(C4)C2)C3)n1-c1ccc(F)cc1)Nc1ccccc1 | 6% | -26 | -0.7 | -5 | 7
C[C@]12CCC3C(CC[C@H]4CCCC[C@]34C)C1CC[C@@]2(O)CNCCO (some centres undefined) | . | . | -0.6 | . | -1
N#C/C(=C(\O)c1ccco1)c1ccccn1 | -3% | -53 | 3.3 | 6 | 3
CC1CCCCC1NC(=O)CSc1nc2ccccc2[nH]1 (centres undefined) | . | . | 5.4 | . | 7
O=C(CSc1ccccc1C(=O)O)NCC1CCCCC1 | -8% | . | 1.2 | 10 | 4
Cc1ccc(C(=O)/C=C2\NCC(C)NC2=O)cc1 (centres undefined) | 5% | 8 | -0.4 | 6 | -12
Brc1ccccc1Cn1c(-c2cscn2)nc2ccccc21 | 5% | -19 | . | 2 | 59

Carrying on:
SMILES | Mtb H37Rv | YopH inh | RecA splice inh | Arbovirus anti | Mtb bLac sens | others
CC(=O)Nc1cc2nn(-c3ccccc3)nc2cc1Cl | -7% | -4 | 0.5 | -3 | 57
COc1ccc(NC2CCCN(C(=O)CCN3CCCO3)C2)cc1 (centres undefined) | . | . | -1.6 | . | -1
CC[C@H](C)NC(=O)CCCCCn1c(=S)[nH]c2c([nH]c3ccc(OC)cc32)c1=O | 5% | . | -5.2 | -5 | 2
Cc1ccc(NC(=O)CN2C(=O)COc3ccc(S(=O)(=O)N4CCOCC4)cc32)cc1F | . | . | -1.4 | . | -1
CCCCC(=O)N=c1sc2c(OC)ccc(OC)c2n1C | 7% | . | -0.1 | . | -2
O=C(/C=C/c1ccc(Br)o1)Nc1nccs1 | 2% | . | 0.1 | 10 | 3
Cc1cc(C)c2c(N)c(C(=O)NN3CC(=O)N(c4cccc(Cl)c4)CC3=O)sc2n1 | -2% | . | -9.9 | . | 2
O=C(CCCOc1ccc(Cl)cc1)Nc1cccc(C(=O)O)c1 | 6% | . | 5.3 | 5 | -1
CCOC(=O)c1sc2nccc(N(C)C)c2c1N=CNOCc1ccccc1 | 51% | -5 | 6.1 | -5 | 84
